Source: PubChem
ALR inh: blocks human ALR sulfhydryl oxidase activity | P55789 | purified ALR, DTT oxidation, H2O2 HRP-luminol luminescence | inhibition, % (concentration not given with the values) | 290,000 tested, 3.8% active | AID 485317;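 active means mean and each replicate at 75% or more; inconclusive means only one of the two met; inactive means neither met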;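 further: stock transfer was 7.5 nL into about 7.5 µL; 0% = neutral wells and 100% = wells with inactivated enzyme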
Target sequence (P55789 whole entry, looked up): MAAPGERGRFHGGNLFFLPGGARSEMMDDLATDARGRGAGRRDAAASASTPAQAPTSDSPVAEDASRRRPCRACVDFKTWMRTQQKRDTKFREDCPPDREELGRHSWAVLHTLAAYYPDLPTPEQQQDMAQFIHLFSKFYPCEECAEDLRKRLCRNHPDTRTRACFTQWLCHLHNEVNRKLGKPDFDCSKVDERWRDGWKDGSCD
Calb FLC: affects C. albicans growth with fluconazole | C. albicans CaCi-2 (fluconazole-resistant clinical isolate) + fluconazole, Alamar Blue growth, 48 h | 300,000 tested, 0.57% active | growth inhibition, % (concentration not given with the values) | AID 1979;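 active means most replicates above 75%; inconclusive means exactly half above 75%; inactive means most below 75%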;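 further: all wells also contain fluconazole at 8 µg/ml as a sub-toxic cotreatment; 0% = median of DMSO wells and 100% = median of geldanamycin control wells; wells of about 8 µL received 7.5 nL stock; the first replicate is given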
rRNA inh HTS: inhibits bacterial ribosomal RNA function over humanized ribosomes; AID 720706; GFP signal change (wild-type ribosome), % (test concentration not listed); 350,000 tested, 1.6% active; E. coli WT GFP vs humanized-ribosome RFP mutants, fluorescence, 24 h; stronger effect = lower value; DMSO median 0, no signal -100;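 active means significant combined selectivity score with lowered wild-type GFP, culture density cut under 30%, mutant RFP and density less affected; inactive means any of these conditions unmet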; further: one replicate is shown; some compounds called inactive have numbers as strong as hits
T cruzi repl: blocks replication of Trypanosoma cruzi. AID 1885. T. cruzi beta-gal in NIH3T3, luminescence, 90 h. 300,000 tested, 1.4% active. inhibition, % (test concentration not listed);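 active means mean inhibition across valid replicates above about 55%, limit read from the data; inconclusive means mean below that limit but half or more replicates reach it; inactive means mean below it, under half of replicates reach it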;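 further: signal also drops with host cell toxicity which is not excluded here; 0% = plate median of DMSO wells and 100% = zero luminescence signal; higher percent means less beta-gal luminescence so fewer parasites; stock transfer was 50 nL into about 50 µL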
RanGTP-Imp inh: inhibitors of RanGTP-importin-beta interaction, primary screen, biochemical, FRET, CFP-Ran, YFP-importin-beta, homogeneous; cell-free CFP-Ran/YFP-importin-beta FRET ratio; inhibition, % (no concentration beside the values); 300,000 tested, 1.1% active;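 active means most replicates above 15%; inconclusive means exactly half above 15%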;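 further: 0% = DMSO wells and 100% = Ran loaded with GDP instead of GTP; wells of about 40 µL received 100 nL stock; the first replicate is given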
Beta apoptosis: beta cell apoptosis inhibition; INS-1E cytokine-induced death, ATP luminescence, 48 h; percent of positive-control rescue, neutral wells zero; protection from apoptosis, % (concentration not given with the values); 300,000 tested, 0.8% active; AID 435005;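 active means all replicates at 75% or more, or half of them and the mean; inconclusive means half reach 75% but not the mean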;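 further: 0% = cytokine-treated negative control wells and 100% = positive control rescue; higher means more ATP so stronger rescue from cytokine killing; wells of about 40 µL received 100 nL stock; the first replicate is given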
AF4-AF9 inh: blocks AF4 peptide binding to human AF9. P42568. AlphaScreen, biotin-AF4 peptide binding to FLAG-AF9. 350,000 tested, 0.47% active. AID 651704. inhibition, % at 10 µM;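 active means every replicate reaching a set inhibition limit, whatever the replicate mean, cut at about 25% in these data; inconclusive means mean inhibition reaches that limit but some replicates miss it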;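 further: 0% = plate neutral control median and 100% = total signal loss; the record names both 10 and 1 µM as test concentration; the first replicate is given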
Target sequence (P42568 whole entry, looked up): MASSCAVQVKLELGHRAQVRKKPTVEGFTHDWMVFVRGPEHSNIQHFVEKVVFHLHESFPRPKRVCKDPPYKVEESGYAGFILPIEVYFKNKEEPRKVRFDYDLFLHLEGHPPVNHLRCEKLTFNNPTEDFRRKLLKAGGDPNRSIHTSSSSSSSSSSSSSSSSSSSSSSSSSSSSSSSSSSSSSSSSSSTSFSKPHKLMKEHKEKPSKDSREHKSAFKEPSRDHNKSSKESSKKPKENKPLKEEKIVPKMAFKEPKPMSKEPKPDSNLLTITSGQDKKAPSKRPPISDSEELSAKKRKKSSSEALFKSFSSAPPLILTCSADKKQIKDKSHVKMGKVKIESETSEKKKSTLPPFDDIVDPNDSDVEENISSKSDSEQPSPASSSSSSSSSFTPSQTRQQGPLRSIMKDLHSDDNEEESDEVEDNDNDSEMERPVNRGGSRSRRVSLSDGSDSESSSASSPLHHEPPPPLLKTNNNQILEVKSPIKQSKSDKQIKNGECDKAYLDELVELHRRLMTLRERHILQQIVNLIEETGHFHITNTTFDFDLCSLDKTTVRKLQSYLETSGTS
FGF22 binding: shifts melting point of recombinant human FGF22 | Q9HCT0 | recombinant FGF22 thermal shift, SYPRO orange fluorescence; percent of sucrose octasulfate shift, DMSO zero | calls only at 9.99 µM | 340,000 tested, 1.5% active | AID 651658;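 active means melting point raised past a set limit in the mean and every replicate; inconclusive means no clear call; three in four hits are not shown here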
Target sequence (Q9HCT0 whole entry, looked up): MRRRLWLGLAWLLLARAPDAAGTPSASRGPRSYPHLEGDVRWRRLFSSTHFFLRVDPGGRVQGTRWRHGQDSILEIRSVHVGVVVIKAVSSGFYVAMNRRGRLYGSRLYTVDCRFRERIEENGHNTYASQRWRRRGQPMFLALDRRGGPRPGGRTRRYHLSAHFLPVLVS
rRNA inh HTS OD600: second read-out of rRNA inh HTS, no call of its own (marks repeat the call); OD600 change, %; measured here: OD600 growth;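 optical density of the mix in the first replicate; 0 = DMSO median and -100 = no signal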
rRNA inh HTS RFP: second read-out of rRNA inh HTS, no call of its own (marks repeat the call); RFP signal change, %; measured here: RFP humanized mutant strains;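 first replicate; 0 = DMSO median and -100 = no signal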
Starred values were filed as active, the others as inactive; i = inactive; ? = inconclusive; / = not tested or not shown. The list is partial (hit frequency here may not be typical).

SMILES	ALR inh	Calb FLC	rRNA inh HTS	rRNA inh HTS OD600	rRNA inh HTS RFP	T cruzi repl	RanGTP-Imp inh	Beta apoptosis	AF4-AF9 inh	FGF22 binding
COc1cccc(/C=N/NC(=O)c2cc(C34CC5CC(CC(C5)C3)C4)[nH]n2)c1	/	2	/	/	/	-12	1.3	-10	/	/
O=C(O)CCC(=O)N1CCC[C@H]1C(=O)O	-14	-6	/	/	/	-6	1.0	-1	0.0	i
Cc1nn(C)cc1/C=N/NC(=S)Nc1ccccc1	69	?	/	/	/	23	-1.9	10	/	/
COc1cccc(-n2c(SCC(=O)OC(C)C)nnc2-c2cccnc2)c1	-3	2	0	5	0.6	4	-4.5	-9	5.1	i
COc1ccc(/C=C/C(=O)c2ccccc2)cc1Cn1nnc2ccccc21	5	2	/	/	/	18	1.1	4	/	/
COCCN(C(=O)Nc1ccc(OC)cc1OC)C1CCN(C(C)=O)CC1	-9	-31	/	/	/	2	0.3	0	/	/
C/C(=N\NC(=O)CNC(=O)c1ccc2c(c1)OCCO2)c1ccco1	2	2	6	7	-1.0	13	-1.5	-5	/	i
CCN(c1cccc(C(F)(F)F)c1)S(=O)(=O)c1ccc2c(c1)CCN2C(C)=O	8	6	/	/	/	15	0.7	3	/	/
CC(O)CCc1ccc(O)cc1 (stereo not drawn)	3	-10	9	17	2.1	-10	-0.3	-1	-1.7	i
Cc1ccc(S(=O)(=O)c2c[nH]c3cc4c(cc3c2=O)OCO4)cc1	-6	1	22	1	5.6	18	6.9	-2	/	i
Cc1ccc(-c2ccc([C@H]3[C@@H]4C=CCC[C@@]4(C)C(=O)N3Cc3ccccc3)c(F)c2)cc1	/	-3	23	25	-5.5	28	?	5	-2.5	i
COC(=O)c1cc(OC)c(OC)cc1-n1cnc2cc(OC)c(OC)cc2c1=O	-2	4	/	/	/	-7	2.9	-1	/	/
COc1ccccc1C1=NN(C(=S)Nc2ccccc2)C(c2ccco2)C1 (stereo not drawn)	-5	-21	/	/	/	29	-1.6	8	/	/
Cc1ccc(SCC(=O)N=C2NC(=O)CS2)cc1	4	3	6	4	-0.1	-13	10	-8	-2.6	i
CCCN1CCC(NC(=O)Nc2ccc(OC)c(OC)c2)CC1	/	4	/	/	/	-14	1.4	-6	/	/
CCc1ccc(-c2nc(CN3CCC(C(=O)NCCc4ccc(OC)c(OC)c4)CC3)c(C)o2)cc1	-3	?	/	/	/	1	-2.0	-3	/	/
Cn1c(Cl)nc2c1c(=O)n(Cc1cccc(Br)c1)c(=O)n2C	7	-24	2	0	-0.7	-12	/	2	/	/
CC1CC(C)CN(C(=O)c2ccc(S(=O)(=O)N3CC(C)CC(C)C3)cc2)C1 (stereo not drawn)	-2	4	-8	-42	-3.2	6	4.9	-3	4.9	i
O=C(CC1NCCNC1=O)NC1Cc2ccccc2C1 (stereo not drawn)	-5	-3	/	/	/	1	6.4	0	0.3	i
CCOc1ncccc1C(=O)Nc1cccc(S(=O)(=O)N2CCCCC2)c1	-4	/	12	13	-1.4	/	/	-6	-1.6	i
O=C(O)CCN1C(=O)c2ccccc2C1=O	/	-5	/	/	/	4	-4.3	0	/	/
CC(C)CC(=O)Nc1c2c(nn1-c1ccc(F)cc1)CSC2	6	10	-2	1	-3.1	4	-0.2	/	-14	i
Cc1ccc(C(=O)COc2cc(C)nc3nncn23)cc1	2	0	12	11	1.8	-6	-3.1	-3	0.6	i
CCOc1ccc(S(=O)(=O)NCC(=O)NC2CCCCC2)cc1	91*	/	3	9	-1.1	/	/	-2	-2.1	i
O=S(=O)(NC1CCCC1)c1cc(F)ccc1F	-1	3	0	-5	3.5	-2	0.0	-7	-0.5	i
Next section:
SMILES	ALR inh	Calb FLC	rRNA inh HTS	rRNA inh HTS OD600	rRNA inh HTS RFP	T cruzi repl	RanGTP-Imp inh	Beta apoptosis	AF4-AF9 inh	FGF22 binding
O=C(c1noc2c1CCCC2)N1CCCC(N2CCN(c3ccccc3F)CC2)C1 (stereo not drawn)	1	-3	/	/	/	-6	1.1	-2	/	/
COc1ccc(NC(=O)CSc2nnc(N)s2)c([N+](=O)[O-])c1	-19	-10	4	8	-1.1	-17	-3.4	-8	5.5	i
CC(=O)Nc1ccc(C(=O)N/C(=C/c2ccccc2)C(=O)NCc2ccco2)cc1	17	8	3	5	-4.0	-11	2.9	-1	-0.7	i
CCC(C)c1ccc(NC(=S)NCc2ccccc2OC)cc1 (stereo not drawn)	/	-15	-37	-66	1.9	46	-3.5	/	1.0	i
CCn1c(=O)c2cc(C(=O)NC(C)C)sc2c2ccccc21	/	1	-8	-9	3.8	-4	0.3	2	-0.2	i
Cc1noc(C)c1S(=O)(=O)N1CCC(C(=O)Nc2ccccn2)CC1	-5	-2	/	/	/	-4	-2.0	-4	/	/
Cc1cccc(NC(=O)CCS(=O)(=O)c2cc3c(cc2Cl)NC(=O)CO3)c1	0	-8	6	8	-0.9	6	7.7	-7	-0.5	i
Cc1cccc(C(=O)NNc2ncnc3c2cnn3C)c1	53	-15	21	12	0.6	-17	-1.6	-4	-1.2	i
CC(/C=C/C1(O)C(C)CC(O)CC1(C)C)OC1OC(CO)C(O)C(O)C1O (stereo not drawn)	-6	11	/	/	/	4	0.2	/	0.8	i
Cc1cccc(/C=N/NC(=O)c2ccc(F)cc2)n1	-1	12	12	11	-1.3	?	1.5	/	2.0	i
COc1ccc(NC(=O)CSc2ccccc2)c(OC)c1	-17	-4	/	/	/	-9	-0.9	6	/	/
CC1=C(C)CC(C(=O)Nc2cccc([N+](=O)[O-])c2)C(C(=O)O)C1 (stereo not drawn)	0	-1	/	/	/	-9	-4.8	-12	/	/
O=C(O)/C(=C\c1cccs1)c1ccc(F)cc1	-5	5	-10	-6	-3.0	-8	3.7	-9	-2.1	i
O=[N+]([O-])c1ccc(C2NS(=O)(=O)N=C3CCCCCN32)cc1 (stereo not drawn)	0	2	11	-1	-5.7	-4	-3.1	-2	6.7	i
CCCCCCC1CCC(C(=O)NC(CCSC)C(=O)NC(C(=O)OC)C(C)C)CC1 (stereo not drawn)	/	17	/	/	/	0	5.8	-3	/	/
CCOCCCn1c(=S)[nH]c2cc(C(=O)N3CCC(C(N)=O)CC3)ccc2c1=O	46	-5	/	/	/	-8	-3.2	-9	/	/
O=C1/C(=C/c2ccncc2)SC(=S)N1C1CCS(=O)(=O)C1 (stereo not drawn)	-1	63	/	/	/	22	4.6	-22	/	/
COc1cccc(Oc2ccc3nnc(C(F)(F)F)n3n2)c1	0	2	-2	-9	-0.8	-9	-0.2	-1	-2.4	i
CC(=O)C1C(c2ccccc2)c2c(n[nH]c2C)CC1(C)O (stereo not drawn)	4	11	/	/	/	1	0.7	0	/	/
Cc1ccc(S(=O)(=O)N2CCN(c3ncccn3)CC2)cc1C	/	-4	14	10	1.2	-8	2.4	-1	-2.3	i
CCCCN1C(=O)NC(NC(=O)c2ccco2)(C(F)(F)F)C1=O (stereo not drawn)	-2	-13	/	/	/	-11	-1.4	-10	/	/
S=C1NCN(Cc2ccco2)CN1c1ccccc1	-19	5	3	10	-0.7	-3	-3.9	-10	-0.3	i
Cc1cccc(-n2cnc(C(=O)NC3CCCCCC3)c2)n1	15	-21	/	/	/	6	-1.6	-1	/	/
Cc1cc(C)n(NC(=S)NC2CCCCC2)c(=O)c1C#N	13	-2	6	-2	1.7	-9	?	-3	-5.7	i
NNC(=O)c1oc2ccccc2c1-n1cccc1	/	4	1	3	1.3	-1	1.0	-17	0.1	i

Ordered by the number under rRNA inh HTS (lowest first): 4 from the list above
molecule | rRNA inh HTS
CCn1c(=O)c2cc(C(=O)NC(C)C)sc2c2ccccc21 | -8
COc1cccc(Oc2ccc3nnc(C(F)(F)F)n3n2)c1 | -2
Cc1cccc(/C=N/NC(=O)c2ccc(F)cc2)n1 | 12
Cc1ccc(-c2ccc([C@H]3[C@@H]4C=CCC[C@@]4(C)C(=O)N3Cc3ccccc3)c(F)c2)cc1 | 23

(further entries)
SMILES	ALR inh	Calb FLC	rRNA inh HTS	rRNA inh HTS OD600	rRNA inh HTS RFP	T cruzi repl	RanGTP-Imp inh	Beta apoptosis	AF4-AF9 inh	FGF22 binding
Cc1ccc(C)c(C(=O)CCC(=O)O)c1	-3	-5	-1	13	-0.3	-9	5.6	-2	0.9	i
Cc1ccc(O)c(NC(=O)c2cc(-c3ccccc3)on2)c1	3	-2	6	9	-0.2	-2	1.2	3	4.8	i
C#CCOc1nc(OCC#C)nc(OCC#C)n1	2	-1	/	/	/	4	-1.4	1	/	/
CCc1ccc(NC(=O)Cc2ccc(NC3=NC4CS(=O)(=O)CC4S3)cc2)cc1 (stereo not drawn)	-5	-6	4	7	2.6	-3	0.9	10	-0.2	i
O=[N+]([O-])c1ccc(C=Nc2ccc(Cl)cc2Cl)s1	-4	9	16	17	-4.4	46	2.9	15	-1.8	i
O=C(CSc1nnnn1C1CC1)N1CCN(c2ccc(O)cc2)CC1	99*	/	25	2	8.6	/	/	12	-1.1	i
Cc1ccc(NS(=O)(=O)c2ccc3c(c2)n(C)c(=O)n3C)cc1	-21	0	-5	-10	0.8	-1	-1.4	-3	/	/
CCc1c(C)nc2c(-c3ccccc3)c(-c3ccccc3)[nH]n2c1=O	/	-8	4	8	2.8	7	4.9	-4	2.2	i
CCOC(=O)C1C(c2ccccc2)C(C(=O)OCC)S(=O)(=O)C(CCN(CC)CC)S1(=O)=O (stereo not drawn)	1	22	11	2	-0.9	-11	0.7	-6	0.5	i
O=C(Nc1ccc(S(=O)(=O)NC2=NCCCCC2)cc1)c1ccccc1Cl	-1	-25	7	6	4.5	-10	6.6	-2	6.4	i
COc1cc(C(=O)N(C)C2CCCCC2)ccc1OC1CCN(C(C)=O)CC1	/	-7	1	3	0.1	-11	5.0	2	-2.7	i
O=C1[C@@H]2CSCN2C(=O)CN1Cc1ccccc1F	5	-1	5	11	4.1	-2	1.7	-2	-0.8	i
O=C(O)CC(c1ccc(C(F)(F)F)cc1)N1Cc2ccccc2C1=O (stereo not drawn)	/	-4	5	10	-1.1	-8	0.3	3	-2.0	i

Marked active in ALR inh (from the list above):
compound,ALR inh,rRNA inh HTS,rRNA inh HTS OD600,rRNA inh HTS RFP,RanGTP-Imp inh,AF4-AF9 inh,FGF22 binding
CCOc1ccc(S(=O)(=O)NCC(=O)NC2CCCCC2)cc1,91*,3,9,-1.1,/,-2.1,i
O=C(CSc1nnnn1C1CC1)N1CCN(c2ccc(O)cc2)CC1,99*,25,2,8.6,/,-1.1,i

Part of the list above in a different format.
Screens in order: ALR inh	Calb FLC	rRNA inh HTS	rRNA inh HTS OD600	rRNA inh HTS RFP	T cruzi repl	RanGTP-Imp inh	Beta apoptosis	AF4-AF9 inh	FGF22 binding
- Cc1ccc(S(=O)(=O)c2c[nH]c3cc4c(cc3c2=O)OCO4)cc1
→ -6	1	22	1	5.6	18	6.9	-2	/	i
- Cc1ccc(-c2ccc([C@H]3[C@@H]4C=CCC[C@@]4(C)C(=O)N3Cc3ccccc3)c(F)c2)cc1
→ /	-3	23	25	-5.5	28	?	5	-2.5	i
